NPYLR7 agonist = agonists of mosquito NPYLR7 receptor, primary screen, cell-based, Aedes aegypti, calcium fluorescence, mosquito biting behavior; Aedes aegypti neuropeptide Y-like receptor 7 (NPYLR7); HEK293T NPYLR7/Galpha15, GCaMP6s calcium fluorescence; activation, % at 10 µM; 270,000 compounds, 0.15% hits; in the data active = activation above about 40%;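 also: 0% = vehicle and 100% = reference agonist at the receptor; some compounds past the cut are filed as inactive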
NPYLR7 agonist max-min = further read-out of NPYLR7 agonist, marked with its call; activation, %; measured here: Max-Min RFU normalised activation; some inactives read as strong as hits;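 span of the calcium signal over five minutes; 0% = vehicle and 100% = native peptide agonist; compound fluorescence can raise it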
* = called active by the depositor; & = joins results of further samples. An excerpt; rates above refer to the full screens.

1) O=C1C(=O)N(Cc2ccccc2)C23C1=C(c1ccccc1)OC2(O)c1ccccc1C3(O)O (stereo not drawn)
2) CCOC(=O)C1C(=N)OC2=C(C(=O)CCC2)C1c1cccc([N+](=O)[O-])c1 (stereo not drawn)
3) CSc1cccc(NC(=O)CN2CCc3cc(S(N)(=O)=O)ccc32)c1
4) CCCCCCc1ccc(C(=O)Nc2ccc(C3SCC(=O)N3c3ccc(OCC)cc3)cc2)cc1 (stereo not drawn)
5) NC(=O)c1ccc(NC(=O)CS(=O)(=O)c2cn(CC(=O)N3CCCCC3)c3ccccc23)cc1
6) CC1CN(C(=O)c2ccc(NC(=O)C3CC3)cc2)CCO1 (stereo not drawn)
7) COc1cc(=O)n(-c2ccccc2C)nc1C(=O)NC(c1ccccc1)c1ccccc1
8) C=CCN(C(=O)c1cc2c(C)nn(CC(C)C)c2s1)c1nc2c(s1)CCCC2
9) O=C(CC(=O)NC12CC3CC(CC(C3)C1)C2)NCCc1cnc[nH]1
10) Cc1ccn2c(NC(C)(C)CC(C)(C)C)c(-c3ccc(C(F)(F)F)cc3)nc2c1
assay / entry,1,2,3,4,5,6,7,8,9,10
NPYLR7 agonist,2.7,6.8,3.6,0.4,-2.8,11.1,-2.5,5.2,16.3,12.5
NPYLR7 agonist max-min,1.2,-0.9,10.1,6.4,-7.7,11.4,-4.6,5.4,13.2,12.6

Of the compounds above, 4 have sulfur:
3) CSc1cccc(NC(=O)CN2CCc3cc(S(N)(=O)=O)ccc32)c1
4) CCCCCCc1ccc(C(=O)Nc2ccc(C3SCC(=O)N3c3ccc(OCC)cc3)cc2)cc1 (stereo not drawn)
5) NC(=O)c1ccc(NC(=O)CS(=O)(=O)c2cn(CC(=O)N3CCCCC3)c3ccccc23)cc1
8) C=CCN(C(=O)c1cc2c(C)nn(CC(C)C)c2s1)c1nc2c(s1)CCCC2
assay / entry,3,4,5,8
NPYLR7 agonist,3.6,0.4,-2.8,5.2
NPYLR7 agonist max-min,10.1,6.4,-7.7,5.4

Later entries.
11) Cc1cc2c(c(-c3ccnc4cc(Cl)ccc34)c1)OC(CN)C2 (stereo not drawn)
12) COc1cc(CCC(C)=O)ccc1O
13) O=C(Nc1cccc(-c2ccn[nH]2)c1)C1CCN(Cc2cccc3ccccc23)CC1
14) COc1ccc(O)c(CN2CCCC(C(=O)c3cc(C)c(OC)c(C)c3)C2)c1 (stereo not drawn)
15) CCCc1cnc(C)nc1N1CCCC(Cc2ccccc2)(C(=O)O)C1 (stereo not drawn)
16) NC(=O)c1ccc(C2CCCN2Cc2cccn2-c2ccccc2F)s1 (stereo not drawn)
17) Cc1nn(C)c(C)c1-c1ccnc(NCC2COCCO2)n1 (stereo not drawn)
18) CCC1(C)NC(=O)N(N=Cc2c(F)c(F)c(F)c(F)c2F)C1=O (stereo not drawn)
19) Cc1cc(C)n(CCCNC(=O)Cn2c(-c3ccc(F)cc3)c(C)sc2=O)n1
20) Cc1cc(NC(=O)CNCc2ccco2)no1
assay / entry,11,12,13,14,15,16,17,18,19,20
NPYLR7 agonist,19.6,0.9,17.7,1.2,4.1,-1.6,9.8,8.7,11.0,6.4
NPYLR7 agonist max-min,9.7,0.4,4.1,-1.5,-0.1,-4.8,7.5,15.4,8.1,6.5

21) Cc1cccc(CNC(=O)C(C2CCCC2)N2CCN(C(=O)c3ccccc3C)CC2)c1 (stereo not drawn)
22) O=C(c1ccc2c3c(cccc13)CC2)C1CCCN(C(=O)c2cccnc2)C1 (stereo not drawn)
23) CSc1nnc(CC2CCN(Cc3cccc4c3OCO4)CC2)n1C
24) O=C1c2nc(Nc3ccncc3)ccc2CN1C1(C(=O)NCc2nccs2)CC1
25) COCCNC(=O)NC(=O)CN(C)Cc1cc(Br)ccc1F
26) Cn1cnnc1Sc1ccc(-c2nccn2C2CCCCCC2)o1
27) O=C(O)C1Sc2[nH]c(=O)sc2C2c3cc(Cl)ccc3OC(=O)C12 (stereo not drawn)
28) COc1ccc(CC(N)c2csc(Nc3cc(NCc4ccco4)ncn3)n2)cc1 (stereo not drawn)
29) N#Cc1cn(-c2ccccc2)nc1-c1ccc(Br)cc1
30) CCOC(=O)C1CCCN(C(=O)c2csc(COc3ccc(F)cc3F)n2)C1 (stereo not drawn)
assay / entry,21,22,23,24,25,26,27,28,29,30
NPYLR7 agonist,-9.9,10.8,-2.3,6.8,-0.6,-3.3,-0.9&6.8,-2.6,4.7,-4.2
NPYLR7 agonist max-min,-1.7,4.0,-3.6,1.0,-1.3,-13.4,26.3&4.7,-7.8,-2.2,2.4

Some of the entries above, reformatted:
19) Cc1cc(C)n(CCCNC(=O)Cn2c(-c3ccc(F)cc3)c(C)sc2=O)n1
  NPYLR7 agonist = 11.0
  NPYLR7 agonist max-min = 8.1

28) COc1ccc(CC(N)c2csc(Nc3cc(NCc4ccco4)ncn3)n2)cc1 (stereo not drawn)
  NPYLR7 agonist = -2.6
  NPYLR7 agonist max-min = -7.8

Further structures follow.
31) COc1ccccc1-c1noc(CCSC)n1
32) Cc1cccc(N2CCN(C(=O)/C=C/c3ccc(F)cc3)CC2)c1C
33) CCNC(=O)COC(=O)C(c1ccccc1)N1CCSCC1 (stereo not drawn)
34) CCOC1CC(NC(=O)Nc2cccc3cnccc23)C12CCC2 (stereo not drawn)
35) O=C(NCCCN1CCCC1=O)C(C1CCCC1)N1CCN(C(=O)Nc2cccc(Cl)c2)CC1 (stereo not drawn)
36) CC1Cc2ccccc2N1C(=O)c1cnc2n(c1=O)CCS2 (stereo not drawn)
37) COc1cc(C=C2C(=O)N(C)C(=O)N(C)C2=O)ccc1OCCSc1ccc(C)cc1
38) O=C(CN(Cc1ccco1)C(=O)/C=C/c1ccccc1)Nc1cc(-c2ccccc2)nn1-c1ccc(F)cc1
39) O=C(NCCNC(=O)c1cnccn1)c1cnccn1
40) COc1ccccc1-c1nc(=S)c2c([nH]1)Oc1c(cccc1OC)C2
assay / entry,31,32,33,34,35,36,37,38,39,40
NPYLR7 agonist,12.7,-6.4,7.0,3.7,-3.4,-1.0,3.6,16.4,7.0,0.6
NPYLR7 agonist max-min,0.7,-11.1,6.0,2.5,0.6,-1.7,1.8,8.3,5.8,-1.5

Single values from above.
Result of no. 38 in NPYLR7 agonist max-min: 8.3
Result of no. 33 in NPYLR7 agonist max-min: 6.0

Other entries follow.
41) CCn1c(SC(C)C(=O)N2CCCc3ccccc32)nnc1-c1ccco1 (stereo not drawn)
42) Cc1ccc(Cn2ncc3c(N4CCC(C)CC4)ncnc32)cc1
43) O=C(c1cc2c(s1)CCCCC2)N1CCCC(Nc2ccccc2)C1 (stereo not drawn)
44) COc1ccc(NC(=O)c2c(C)c3c(n2Cc2cccc(OC)c2)CCCC3)cc1
45) Cc1ccc(OCc2ccc(Cl)c3cccnc23)c(CO)n1
46) O=C1CSC(N2CCCCC2)=N1
47) Cc1cn2c3c(=O)n(CC=Cc4ccccc4)c(=O)n(C)c3nc2n1CCCN1CCOCC1
48) O=C1c2nc(-c3cccnc3)ccc2CN1C1(C(=O)NCCCn2ccnc2)CC1
49) CC(C)SCC(=O)Nc1ccc(I)cc1Cl
50) Cc1ccccc1-n1cnnc1SCC(=O)NC1(C#N)CCCCC1
assay / entry,41,42,43,44,45,46,47,48,49,50
NPYLR7 agonist,-14.9,1.5,2.6&1.5,13.0,5.5,7.5,-0.8,13.2,-2.1,5.0
NPYLR7 agonist max-min,-13.0,-0.3,-0.4&2.9,10.6,2.9,15.8,0.8,24.4,-4.5,0.3

51) CCOC(=O)C(=O)N1CCC(Cc2ccc(F)cc2)CC1
52) CCC(CC)C(=O)N1C[C@@H](CO)[C@@H]2Oc3c(C)cccc3[C@@H]21
53) COCCCNC(=O)c1csc(CN(CCCOC)C(=O)CCCCl)n1
54) CC(C)Cc1cc(C(=O)N2CCNC(=O)[C@@H]2Cc2ccccc2)on1
55) C=Cc1ccc(S(=O)(=O)Nc2ccccc2C(=O)NC(C)c2ccccc2)cc1 (stereo not drawn)
56) Cn1ccnc1C(O)(CC(=O)N1CCCC1Cc1ccccc1Cl)C(F)(F)F (stereo not drawn)
57) O=C(O)/C=C/c1cc(Br)c2c(c1)OCCO2
58) Cc1cc(NC(=O)c2ccn(C)n2)n(-c2nc3ccc(F)cc3s2)n1
59) c1ccc(C(NCc2ccc3c(c2)OCO3)c2ccccc2)cc1
60) CCOC(=O)COc1ccc2oc(=O)cc(-c3cc4cc(Br)ccc4o3)c2c1
assay / entry,51,52,53,54,55,56,57,58,59,60
NPYLR7 agonist,3.9,-3.1,4.3,28.0,0.6,8.2,-9.9,-6.6,-1.4,0.6
NPYLR7 agonist max-min,3.9,6.7,10.2,11.0,-2.0,2.7,-14.6,-11.5,-5.6,-0.5

61) COc1cccc(OC)c1C(=O)N1C(C(=O)NCc2ccccn2)COC12CCC(C)CC2 (stereo not drawn)
62) Cc1cc(C(=O)Nc2ccc3nc(N4CCN(C)CC4)sc3c2)nn1C
63) O=C(/C=C\c1ccc2c(c1)OCO2)OCc1cc(-c2ccc3c(c2)OCO3)on1
64) CCOC(=O)c1nn(-c2ccccc2C)c(=O)cc1OCC(=O)Nc1ccccc1OC
65) CCc1nnc(-c2ccc(NC(=O)c3cc(OC)c4c(c3)OCCO4)cc2)o1
66) O=C(NCC1CCCCC1)N1CCC(n2cc(-c3ccsc3)nn2)CC1
67) C#CCn1c(=NC(=O)c2cc(C)no2)sc2cc3c(cc21)OCCO3
68) CCN1CCN(C(=O)c2ccccc2N2CCC(NS(=O)(=O)c3ccc(F)cc3)CC2)CC1
69) Cc1cccc(OC2CN(C(=O)CCc3n[nH]c(C)c3C)C2)c1
70) CCS(=O)(=O)NC(=O)C1(C)CCN1C(=O)CCc1cccs1 (stereo not drawn)
assay / entry,61,62,63,64,65,66,67,68,69,70
NPYLR7 agonist,2.0,0.3,-0.6,5.8,-4.2,0.7,3.0,0.1,7.4,0.6
NPYLR7 agonist max-min,14.0,-1.7,-0.3,1.9,-8.1,2.4,5.5,4.6,5.9,-2.7

71) CN[C@@H](C)c1nc(C)nn1-c1cccc(Cl)c1C
72) Cc1ccc(Cc2nc(CSc3nc4ccccc4o3)cs2)cc1
73) N#Cc1c2n(c(=O)n(Cc3nnc(-c4ccc(Cl)cc4)o3)c1=O)CCCCC2
74) CCOC(=O)[C@H]1C[C@@H]2O[C@H]1[C@H]1CN(C(=O)c3ccccc3F)C[C@H]1[C@@H]2O
75) CN(C)c1cccc(C(NC(=O)CCCCCNC(=O)OC(C)(C)C)c2ccc(S(C)(=O)=O)cc2)c1 (stereo not drawn)
76) Cc1ccsc1S(=O)(=O)N1CCC(Cc2cccc(C(N)=O)c2)C1 (stereo not drawn)
77) CCOC(=O)c1nnn2c1CC(O)C1O[C@@H]3OC(C)(C)OC3C12 (stereo partly drawn)
78) CCCCNC(=O)C1(C)CCN1C(=O)c1c(F)ccc(C)c1F (stereo not drawn)
79) CC(NCCc1ccc(O)cc1)C(O)c1ccc(O)cc1 (stereo not drawn)
80) CN(C)CC(=O)NC(c1ccccc1)c1ccccc1
assay / entry,71,72,73,74,75,76,77,78,79,80
NPYLR7 agonist,6.7,2.3,5.1,1.5,-16.7,6.7,-4.5,6.5,-6.2&-12.6,8.1
NPYLR7 agonist max-min,4.8,0.2,1.9,4.8,-19.8,1.9,2.1,1.9,-9.8&-12.0,1.8

81) CC1CC(C)CN(CC(C)NC(=O)C2(NC(=O)OC(C)(C)C)Cc3ccccc3C2)C1 (stereo not drawn)
82) CNC(=O)c1c(Nc2ccccc2C(F)(F)F)n[nH]c1C
83) COc1cc(-c2nc(CSc3nncn3C)cs2)ccc1O
84) CCN(CC)CCN(C(=O)c1cc(C)n(C)n1)c1nc2ccc(F)cc2s1
85) CCCNC(=O)Cn1nc2c(c1NC(C)=O)CSC2
86) CCOC(=O)CCc1c(C)nc2ncnn2c1N1CCN(C(=O)NCc2ccccc2Cl)CC1
87) CC1CCN(C(=O)C2CC2c2c(F)cccc2F)C(c2ccco2)C1 (stereo not drawn)
88) O=C(Nc1nnc(C2CCCCC2)s1)c1ccc2c(c1)OCO2
89) Cn1c(=NC(=O)CCS(=O)(=O)c2ccc(F)cc2)sc2ccccc21
90) Cc1ncc2c(c1CNC(=O)CSc1ccccc1)CCN(C(=O)/C=C/C(C)C)C2
91) CCC(C)c1ccccc1NC(=O)C(C)N(C)CC(=O)N1CCOCC1 (stereo not drawn)
92) COc1cc(OC)cc(C(=O)N2CCC(C(=O)c3ccc4c(c3)OCCO4)CC2)c1
93) CCOC(=O)c1cc(-c2ccc(N3CCN(C(=O)c4cc(C)oc4C(F)(F)F)CC3)cc2)n(-c2ccccc2OC)n1
assay / entry,81,82,83,84,85,86,87,88,89,90,91,92,93
NPYLR7 agonist,3.6,2.1,6.2,5.6,-5.4,22.9,16.5,1.2,2.9,-4.3,6.8,2.4,5.5
NPYLR7 agonist max-min,4.6,0.4,4.4,3.5,-10.3,13.3,15.6,3.5,-0.2,-9.2,1.9,4.8,1.4
